tim23-1 inh – inhibits growth of tim23-1 mutant yeast. AID 463212. inhibition, % at 20 µM. S. cerevisiae tim23-1 growth, BacTiter-Glo luminescence, 24 h. 330,000 tested, 1.3% active;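 active = growth inhibition of the mutant yeast at or above 50%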;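 also: temperature-sensitive mutant grown at 25 °C; plate controls were DMSO-treated mutant yeast for no effect and medium wells lacking yeast for full effect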
UPR CHOP act – apoptotic UPR (CHOP) activation | activation, % at 10 µM | 330,000 tested, 0.34% active | CHO-CHOP luciferase reporter, luminescence; percent of tunicamycin response over DMSO baseline;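 active = at 10 µM dose, activation of 40% or more, normalized to positive control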;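 also: 100% = tunicamycin at 10 µg/mL and 0% = DMSO alone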
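assay system = CHO CHOP reporter cells | amount = 500 CHO-CHOP cells per well | buffer or medium = F12 with 10% FBS | incubation = 16-18 h cell attachment, then 6 h compound exposure, 37 °C | detection = luminescence read with Steady-Glo | read-out = percent activation relative to tunicamycin control | controls = tunicamycin high control, DMSO low control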
NR3A LBD binder – modulates the human NR3A ligand-binding domain. NR3A LBD differential scanning fluorimetry, Tm shift; 0% = protein alone, 100% = glycine-bound protein. Tm shift relative to glycine control, % at 25 µM. 340,000 tested, 2.5% active;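 active = melting temperature shift of at least 10% of the positive control shift, at one fixed dose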
TIM10 inh – growth inhibitors of TIM10 yeast strain; S. cerevisiae TIM10 strain growth, BacTiter-Glo luminescence, 24 h; inhibition, % at 10 µM; 330,000 tested, 1.4% active; AID 463195;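 active = inhibition of 40% or more at the single tested concentration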;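 also: wild-type TIM10 isogenic control strain grown at permissive 25 °C; 0% = DMSO yeast wells and 100% = minimal medium wells without yeast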
tim10-1 inh – inhibits growth of tim10-1 mutant yeast; AID 463190; inhibition, % at 20 µM; S. cerevisiae tim10-1 ts strain growth, BacTiter-Glo, 24 h; 330,000 tested, 2.2% active;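 active = inhibition of at least 40%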;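 also: mutant grown at 25 °C; 0% = DMSO wells with yeast and 100% = wells holding no yeast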
* marks the source's active call; other numbers are inactive results. This is a subset. The share of hits here may be higher or lower than overall.

Screens in order – tim23-1 inh | UPR CHOP act | NR3A LBD binder | TIM10 inh | tim10-1 inh
> O=C(CSc1nc2c([nH]c3ccccc32)c(=O)n1-c1ccccc1F)NCC1CCCO1 (configuration not stated)
 : 9 | 0.2 | -1 | 7 | 5
> O=C1CCCC/C=C\C[C@H](CC(=O)N(CCO)Cc2ccccc2)C(=O)NC[C@H](c2ccccc2)O1
 : -1 | -1.3 | 0 | 0 | -4
> O=C(NNC(=O)c1ccccc1OCc1ccccc1Cl)c1csc(N2CCOCC2)n1
 : 23 | 4.7 | 1 | 25 | 20
> Cc1ccc(S(=O)(=O)N2CCN=C2SCc2ccccc2)cc1
 : -3 | -0.6 | 4 | -15 | 4
> Cc1cccc(C(=O)NNC(=O)c2c(O)c3ccccc3n(C)c2=O)c1
 : 67* | 1.3 | -1 | 15 | 0
> O=C(O)CC(O)(CC(=O)O)C(=O)O
 : 14 | 2.8 | 1 | 5 | 1
> CC(/C=C/c1ccc2c(c1)OCO2)=N\NC(=O)c1cccc([N+](=O)[O-])c1
 : -19 | -0.4 | -3 | -9 | -5
> O=C(NCCCCc1ccccc1)c1ccccc1Br
 : -4 | 3.2 | 0 | 9 | -13
> CCC1Nc2ncnc(N3CCN(c4ccccc4)CC3)c2N(Cc2ccccc2)C1=O (configuration not stated)
 : 10 | 1.6 | 1 | 8 | 9
> O=C1NC[C@@H](c2ccccc2)OC(=O)[C@H](Cc2ccc(F)cc2)C/C=C\C[C@@H]1CC(=O)N(CCO)Cc1ccccc1
 : -2 | 3.3 | -1 | 3 | 2
> COc1ccc(-c2csc3ncnc(N4CCN(c5cccc(C)c5C)CC4)c23)cc1
 : 3 | -0.9 | 3 | -3 | 6
> Cc1cccc(NC(=O)N2CCN(Cc3ccc(Cl)cc3)CC2)c1
 : 19 | 3.3 | -1 | -6 | 13

In a second layout: 6 of the compounds above.
Compound	tim23-1 inh	UPR CHOP act	NR3A LBD binder	TIM10 inh	tim10-1 inh
O=C(O)CC(O)(CC(=O)O)C(=O)O	14	2.8	1	5	1
CC(/C=C/c1ccc2c(c1)OCO2)=N\NC(=O)c1cccc([N+](=O)[O-])c1	-19	-0.4	-3	-9	-5
O=C(NCCCCc1ccccc1)c1ccccc1Br	-4	3.2	0	9	-13
CCC1Nc2ncnc(N3CCN(c4ccccc4)CC3)c2N(Cc2ccccc2)C1=O (configuration not stated)	10	1.6	1	8	9
O=C1NC[C@@H](c2ccccc2)OC(=O)[C@H](Cc2ccc(F)cc2)C/C=C\C[C@@H]1CC(=O)N(CCO)Cc1ccccc1	-2	3.3	-1	3	2
COc1ccc(-c2csc3ncnc(N4CCN(c5cccc(C)c5C)CC4)c23)cc1	3	-0.9	3	-3	6

An excerpt from above in order of molecular weight, highest first.
Screens in order – tim23-1 inh | UPR CHOP act | NR3A LBD binder | TIM10 inh | tim10-1 inh
> O=C1NC[C@@H](c2ccccc2)OC(=O)[C@H](Cc2ccc(F)cc2)C/C=C\C[C@@H]1CC(=O)N(CCO)Cc1ccccc1
 : -2 | 3.3 | -1 | 3 | 2
> O=C1CCCC/C=C\C[C@H](CC(=O)N(CCO)Cc2ccccc2)C(=O)NC[C@H](c2ccccc2)O1
 : -1 | -1.3 | 0 | 0 | -4
> O=C(NCCCCc1ccccc1)c1ccccc1Br
 : -4 | 3.2 | 0 | 9 | -13
